Rango dissoc inh: prevents RanGTP from dissociating the Rango-importin beta complex; Biochemical FRET Rango-importin beta, RanGTP-induced dissociation; actives 0.071% (n = 340,000); O95149+P62826; Potency, µM (titrated, usually from 46.1 µM), for inactives: at the highest dose activity change, negative = inhibition; active means falling FRET ratio curve, often poorly fitted, with flat reads before Ran was added; inconclusive means other falling curves, or compound fluorescence or quenching; inactive means flat or rising ratio curve;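 note: potency is the fitted concentration of half-maximal effect; % of control where 0% means no effect; nearly all actives have a fitted effect of over 45% in size; -100% = wells without RanGTP and RCC1; the record marks most hits as doubtful in a second field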
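Compounds preincubate 5 min with complex of recombinant Rango and importin beta in PBS with 1 mM DTT. Ran (0.6 uM) loaded with 2 mM GTP plus 0.2 uM RCC1 starts dissociation; FRET is recorded 45 min later.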
Rango-impB inh: inhibitors of Rango-importin beta complex formation; Q14974; Rango CFP/YFP FRET sensor + importin beta, 45 min; Potency, µM (doses to about 92.2 µM), for the others: top-dose inhibition of complex formation; actives 0.031% (n = 340,000); active = rising FRET ratio curve, often small or poorly fitted; inconclusive = mostly compound fluorescence or quenching in the first reads; inactive = flat curves in all reads;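 note: potency is the fitted concentration of half-maximal effect; 0% = DMSO wells and 100% = buffer wells lacking importin beta; nearly all actives have a fitted effect of over 15% in size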
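FRET biosensor Rango (snurportin 1 IBB between N-terminal EYFP and C-terminal Cerulean), 50 nM in PBS/1 mM DTT/0.02% Tween-20/0.1% BSA, preincubated 5 min RT with compound; 0.125 microM importin beta added, 45 min RT, CFP/YFP FRET ratio read.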
miR-21 reporter: raises the signal of a miR-21 reporter; HeLa miR-21 FLuc reporter, luciferase, 48 h; Potency, µM (series often up to 38.3 µM), without a hit: at the top dose reporter change, positive = more light; 340,000 tested, under 10 active; active = well fitted rising curve with a large enough effect; inconclusive = small, poorly fitted or top-dose-only effect; inactive = no such curve, though single readings can be large or run the other way;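 note: % of control where 0% means no effect; miR-21 action dims this reporter so a rising signal means less miR-21 action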
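HeLa cells stably expressing CMV-driven firefly luciferase with a downstream miR-21 binding sequence, endogenously expressing miR-21, were treated with titrations (up to about 40uM final) for 48 hours at 37 degree Celsius. Luciferase luminescence was read after lysis.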
GLA inh pH 4.5: alpha-galactosidase A (human) inhibition, pH 4.5. P06280. purified enzyme, 4-MU-alpha-Gal fluorescence, pH 4.5. activity change, negative = inhibition, % at 105 µM. 230,000 tested, under 10 active; inconclusive = small, poorly fitted or top-dose-only inhibition, or a rising curve; inactive = flat fitted curve, though single readings scatter; no compound was filed as active;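 note: 0% = full activity with enzyme and -100% = basal without enzyme; dose as in the result columns while the protocol names 77 µM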
Target sequence (P06280 whole entry, looked up): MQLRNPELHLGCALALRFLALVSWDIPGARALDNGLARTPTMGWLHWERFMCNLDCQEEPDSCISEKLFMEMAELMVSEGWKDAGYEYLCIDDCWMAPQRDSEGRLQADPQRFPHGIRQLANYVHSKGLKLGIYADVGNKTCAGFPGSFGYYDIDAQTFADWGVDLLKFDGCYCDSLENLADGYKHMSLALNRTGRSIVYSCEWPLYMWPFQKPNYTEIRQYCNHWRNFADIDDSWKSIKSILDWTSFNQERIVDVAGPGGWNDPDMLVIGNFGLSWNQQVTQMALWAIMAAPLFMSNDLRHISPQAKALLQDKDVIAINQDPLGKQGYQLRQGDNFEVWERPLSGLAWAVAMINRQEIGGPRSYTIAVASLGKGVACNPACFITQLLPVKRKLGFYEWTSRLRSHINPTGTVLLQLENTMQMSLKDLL
* marks the source's active call; other numbers are inactive results; ? = inconclusive; nt = not tested or not shown; & = joins results of further samples. Not all compounds are listed; the hit share may differ from the screen's.

mol	Rango dissoc inh	Rango-impB inh	miR-21 reporter	GLA inh pH 4.5
CC1=NOC(=O)/C1=C\c1ccc(-c2ccccc2Br)o1	-0.7%	?	?	4.8
COc1ccc(NC(=O)c2ccc(NC3=NC4CS(=O)(=O)CC4S3)cc2)cc1 (stereo unspecified)	9.6%	-2.5%	0.0%	nt
O=C(NCCc1ccc(Cl)cc1)C(=O)Nc1cc2c3c(c1)CC(=O)N3CCC2	-5.4%	4.7%	nt	nt
COc1ccc(CCNC(=O)c2cc(=O)[nH]c3ccc(Br)cc23)cc1OC	3.7%	0.9%	-7.8%	-7.8
COc1ccc(NC(=O)Nc2ccon2)c(OC)c1	-10.7%	-2.4%	-14.3%	4.5
COc1cccc(NC2=NC3(CCCCC3)N=C(N)N2)c1	6.8%	-1.6%	5.3%	2.3
COC(=O)CSc1nc(N2CCCCC2)c2c(c1C#N)CCCC2	-2.2%	-4.4%	-2.3%	-14.1
Cn1c(OCc2ccc3c(c2)OCO3)nc2c1c(=O)n(Cc1ccc(Cl)c(Cl)c1)c(=O)n2C	3.7%	-0.7%	-2.8%	-29.5
COc1cccc(CN2CCNC(=O)C2CC(=O)N(C)CC2CCOCC2)c1 (stereo unspecified)	-4.7%	-0.9%	-3.3%	nt
COc1ccccc1NS(=O)(=O)c1cccc(C(=O)N/N=C/c2ccccc2OCC(=O)O)c1	0.3%	2.5%	-1.2%	0.3
Cc1cccc(NC(=S)N(CCc2nc3cc(C)c(C)cc3[nH]2)Cc2cccnc2)c1	-8.6%	-3.1%	-2.7%	-25.3
O=C(NC(Cc1c[nH]c2ccccc12)C(=O)O)/C(=C/c1ccco1)NC(=O)c1ccccc1 (stereo unspecified)	-6.2%	0.0%	-0.4%	4.9
COc1ccccc1N1CCN(C(=O)c2cc(-c3ccc4c(c3)OCO4)on2)CC1	3.3%	4.1%	0.2%	0.1
COC(=O)c1ccncc1C(=O)Nc1ccc(F)cc1	2.3%	0.6%	0.5%	2.7
Cc1ccccc1N=C(NO)c1nonc1N	-6.3%	4.5%	0.4%	1.5
CCN(CC)CCN1C(=O)C(=O)/C(=C(/O)c2ccc(S(=O)(=O)N3CCOCC3)cc2)C1c1ccc(Cl)cc1 (stereo unspecified)	-2.6%	-0.2%	-3.4%	nt
CC(=O)Nc1ccc(NC(=O)COC(=O)C2CCC(C(C)(C)C)CC2)cc1 (stereo unspecified)	3.7%	5.3%	nt	nt
Nc1nc2nc(-c3ccc(Cl)cc3)cc(C(F)(F)F)n2n1	?	?	-40.5%&-27.7%	?
CC(C)(C)C(=O)c1sc(Nc2ccccc2)nc1N	2.6%	-3.3%	-29.7%	-15.8
C[C@H](CO)N1C[C@H](C)[C@@H](CN(C)C(=O)Nc2ccc3c(c2)OCO3)Oc2ccc(NC(=O)CCC(F)(F)F)cc2C1=O	-8.1%	3.1%	nt	nt
CC1CC1C(=O)OCC(=O)Nc1cccc(S(=O)(=O)NC2=NCCCCC2)c1 (stereo unspecified)	3.0%	-0.6%	1.9%	-1.6
COc1c[nH]n(-c2ccccc2)c(=O)c1=O	-8.7%	0.3%	nt	nt
CCc1cc2c(C)ccc(C)c2nc1SCC(=O)Nc1c[nH]c(=O)[nH]c1=O	-18.1%	0.0%	0.1%	4.1
Cc1cc([N+](=O)[O-])ccc1NCc1cccc2ccccc12	-12.4%	-0.8%	nt	nt
CCCCCCc1nc2c(=O)[nH]c3ccccc3c2o1	-0.1%	?	-10.0%	7.3

Record cards (already shown). Values in the order: Rango dissoc inh	Rango-impB inh	miR-21 reporter	GLA inh pH 4.5
COc1c[nH]n(-c2ccccc2)c(=O)c1=O in the list: -8.7%	0.3%	nt	nt
O=C(NCCc1ccc(Cl)cc1)C(=O)Nc1cc2c3c(c1)CC(=O)N3CCC2 in the list: -5.4%	4.7%	nt	nt
CC1=NOC(=O)/C1=C\c1ccc(-c2ccccc2Br)o1 in the list: -0.7%	?	?	4.8
Nc1nc2nc(-c3ccc(Cl)cc3)cc(C(F)(F)F)n2n1 in the list: ?	?	-40.5%&-27.7%	?

More results
mol	Rango dissoc inh	Rango-impB inh	miR-21 reporter	GLA inh pH 4.5
CCOC(=O)N1CCN(C(=O)c2ccc3c(c2)NC(=O)/C(=C\c2ccc(OC)c(OC)c2)S3)CC1	-29.1%	?	-1.9%	nt
O=C(O)C1OC(C(=O)O)C(C(=O)O)C1C(=O)O (stereo unspecified)	0.2%	2.8%	nt	nt
CC(C)(C)C(=O)N1NC(=Nc2ccccc2)SC1(C)C	12.6%	0.9%	-3.7%	-3.6
COC1OC2COC(c3ccccc3)OC2C(=O)C1NC(=O)c1ccccc1 (stereo unspecified)	-11.2%	0.0%	nt	nt
C=CCC[C@H](Cc1ccc(F)cc1)C(=O)O[C@H](CNC(=O)[C@@H](CC=C)CC(=O)N(CCO)Cc1ccccc1)c1ccccc1	-18.7%	3.5%	nt	nt
O=C(CCCOc1ccccc1)NCc1ccco1	14.4%	1.4%	-8.4%	-1.5
O=C(C/C=N\OCc1ccc(Cl)cc1Cl)Nc1ccccc1	2.4%	10.5%	-4.3%	0.9
Cc1cccc(C)c1OCC(=O)NNC(=O)CCNC(=O)c1ccc(Br)cc1	-2.2%	-0.7%	4.5%	nt
Cn1c(CN2CCCCC2)nc2cc(NC(=O)c3ccccc3Cl)ccc21	-12.6%	6.4%	5.2%&-14.9%	5.8
CS(=O)(=O)Nc1ccc(C(=O)Nc2ccccc2C(=O)N2CCCC2)cc1	1.3%	0.8%	-4.7%	-1.4
CCN1CCN(S(=O)(=O)c2ccc(C(=O)Nc3sc4c(c3C(N)=O)CCN(CC)C4)cc2)CC1	?	?	-1.4%	nt
COc1ccc(C=NNc2nc3ccccc3s2)cc1	20.3%	1.8%	nt	nt
COc1ccc(NC(=O)C(C)Sc2nnc3c4c(nc(-c5ccc(OC)cc5)n23)CC(C)(C)OC4)cc1 (stereo unspecified)	14.3%	1.3%	-3.2%	-2.6
Cc1cccc(N2CCN(CC(=O)Nc3ccc(S(=O)(=O)N4CCOCC4)cc3)CC2)c1C	0.7%	0.5%	21.7%	nt
O=C(c1ccco1)N1CCN(C(=O)c2nn3cccnc3c2Cl)CC1	-4.4%	-2.0%	0.6%	1.2
COc1ccccc1C(=O)Nc1sc(C(=O)N2CCCC2)c(C)c1C#N	-5.6%	0.1%	?	5.0
COc1ccc(OC)c(NC(=O)C2CCN(S(=O)(=O)c3c(C)noc3C)CC2)c1	11.9%	-0.9%	-2.2%	1.8
COc1ccc(C2CC(c3cccs3)=NN2S(=O)(=O)c2ccc(C)cc2)cc1 (stereo unspecified)	6.0%	-1.2%	nt	nt
O=S(=O)(c1c(Cl)sc(Cl)c1Br)N1CCCC1	-0.1%	-2.6%	-10.5%	-3.6
COCCNC(=O)CSc1nc2cc(OC)c(OC)cc2c(=O)n1Cc1ccco1	?	-1.8%	0.1%	-1.4
Cc1cc(NC(=O)C(C)N2C(=O)c3ccccc3S2(=O)=O)no1 (stereo unspecified)	-2.4%	2.3%	nt	nt
CCOc1ccc(/C(O)=C2/C(=O)C(=O)N(CC3CCCO3)C2c2ccco2)cc1 (stereo unspecified)	-1.2%	2.4%	-14.3%	-1.0
O=C(Nc1nc2nccc(-c3ccccc3)n2n1)c1ccc(F)cc1	2.1%	-1.1%	-6.1%	1.8
Cc1ccc(OCC(=O)O/N=C(\N)Cc2ccc(Cl)cc2)cc1	14.7%	5.8%	-0.7%	-4.1
COc1ccc([N+](=O)[O-])cc1N(CC(=O)Nc1ccccc1C(=O)N1CCOCC1)S(C)(=O)=O	3.1%	1.0%	-1.9%	nt
CCOC(=O)C(Cc1ccccc1)NS(=O)(=O)c1ccc(NC(C)=O)cc1 (stereo unspecified)	-11.9%	-3.0%	-1.7%	3.4
CCC(=O)N1CCc2cc(Br)cc(S(=O)(=O)NCCN3CCCCC3CC)c21 (stereo unspecified)	-16.5%	-2.2%	-10.0%	-11.5
Cc1ccc(-c2c(NC(=O)C(C)C)n(C)c3ccccc3c2=O)cc1	4.0%	-2.8%	-1.1%	nt
O=C1C2CCCCC2C(=O)N1c1cccc(OS(=O)(=O)c2ccccc2)c1 (stereo unspecified)	19.6%	-0.4%	-10.6%	1.2
COc1ccc(C2CC(c3ccccc3Cl)=NN2c2ccc(S(N)(=O)=O)cc2)cc1 (stereo unspecified)	?	?	nt	nt
CCC(=O)c1c[nH]c(C(=O)NCc2ccccc2OC)c1	-13.4%	2.7%	1.1%	nt
CCNc1nc(SCC(=O)OC)nc(N2CCOCC2)n1	11.3%	-1.4%	-4.6%	-0.8
Cn1c(SCC(=O)NC(=O)NCc2ccco2)nnc1C(F)(F)F	-6.3%	-1.1%	1.7%	-0.1
O=C(c1cc(-c2ccccn2)nc2c(Cl)cccc12)N1CCN(S(=O)(=O)c2ccccc2)CC1	-10.7%	-0.8%	-17.1%	3.6
CC(C)=C(NC(=O)c1ccccc1)C(=O)NCCc1nc2ccccc2[nH]1	0.4%	-1.5%	0.3%	nt
CC(Oc1ccccc1F)c1ccnc2nc(/N=C/N(C)C)nn12 (stereo unspecified)	-2.2%	-3.8%	-24.6%	4.3
O=C(COC(=O)Cc1ccc(Br)cc1)Nc1ccc(Cl)cn1	22.8%	2.8%	nt	nt
Cc1ccc2cc(CN(c3cccc(C)c3C)S(=O)(=O)c3ccccc3)c(=O)[nH]c2c1	0.2%	0.9%	1.0%	nt
O=C(C1CCCN1S(=O)(=O)c1ccc(Cl)c(Cl)c1)N1CCCCC1 (stereo unspecified)	27.7%	-0.1%	-5.0%	0.5
CCN1CCc2c(sc(NC(=O)COc3ccccc3)c2C(=O)OC)C1	-14.1%	?	-11.9%	nt
O=S(=O)(c1ccccc1Br)N1CCN(c2ncccn2)CC1	-2.5%	-6.0%	-9.1%	nt
CS(=O)(=O)N(CC(=O)NCCSCc1cccc(Cl)c1)c1ccc2c(c1)OCO2	-0.1%	-0.4%	8.3%	0.0
Cc1cc2c(N=NC(=O)CCc3ccccc3)c(O)[nH]c2cc1Br	-2.6%	2.4%	-8.7%	0.7
COc1ccc(S(=O)(=O)N(CC(=O)NCC2CCCO2)c2ccccc2)cc1OC (stereo unspecified)	0.1%	3.4%	-7.9%	9.2
CCn1c(SCC(=O)N/N=C/c2ccc(C)o2)nnc1-c1ccccc1	-6.1%	-3.5%	-2.0%	-1.1
CCOc1ccc(NC(=O)[C@@H](NC(=O)c2ccco2)C(C)C)cc1	-15.4%	-0.2%	-5.0%	nt
O=C(NCCCN=C1NS(=O)(=O)c2ccccc21)c1ccncc1	-7.9%	0.3%	0.6%	10.7
Cc1cc(C2C(C#N)=C(N)SC(N)=C2C#N)c(C)s1	?	?	-5.3%	-6.2
CCCC(CCC)C(=O)Nc1ccc2c(c1)N(C(=O)CN1CCN(C)CC1)c1ccccc1CC2	-1.0%	2.6%	-9.7%	1.1
COc1ccc(-c2nnc(NC(=O)c3ccc(S(=O)(=O)N4COCC4(C)C)cc3)o2)cc1	0.9%	4.9%	27.4%	-1.4

New compounds follow:
mol	Rango dissoc inh	Rango-impB inh	miR-21 reporter	GLA inh pH 4.5
COc1cc(C(=O)COC(=O)c2ccncc2)cc(OC)c1OC	8.8%	-0.9%	nt	nt
O=C(Nc1nc2ccccc2s1)c1ccc2c(c1)S(=O)(=O)c1ccccc1C2=O	nt	nt	-6.1%	6.6
CS(=O)(=O)Nc1ccc(C(=O)NCCSc2ccc(Cl)cc2)cc1	-11.9%	4.8%	0.3%	nt
CC(=O)c1cc(C#N)c(SCC(=O)O)nc1C	-3.0%	0.5%	5.0%	-7.3
CCc1ccc(OCC(=O)O/N=C(\N)Cc2ccc([N+](=O)[O-])cc2)cc1	7.0%	-1.3%	-16.6%	-10.5

Compound activity from PubChem.
